Assay outcomes (PubChem BioAssay)
Vaccinia mCherry – vaccinia inhibition (mCherry reporter) | Vaccinia virus mCherry reporter infection, fluorescence; about a quarter of the inactives have no number | Potency, µM (highest dose often 36.5 µM), without a hit: at the top dose activity change, negative = inhibition, most hits filed as inhibitors | 310,000 tested, 0.63% active | AID 720579; active = well fitted inhibition curve with a large enough effect; inconclusive = small, poorly fitted or top-dose-only effect; inactive = no such curve, though single readings can be large or run the other way; tested in A549 cells; note: nearly all actives have a fitted effect of over 35% in size; inactives centre near -10
Vaccinia Venus – inhibitors of vaccinia virus (Venus reporter). Vaccinia virus Venus reporter expression, fluorescence. 330,000 tested, 0.46% active. Potency, µM (highest dose often 36.5 µM), inactives show at the top dose activity change, negative = inhibition, most hits filed as inhibitors; active means well fitted inhibition curve with a large enough effect; inconclusive means small, poorly fitted or top-dose-only effect; inactive means no such curve, though single readings can be large or run the other way; tested in A549 cells; note: nearly all actives have a fitted effect of over 30% in size; inactives centre near -10
Starred values were filed as active, the others as inactive; i = inactive; u = inconclusive; x = not tested or not shown; [ ] = another dose, or the depositor's remark. % is set by controls: 0 for no effect and ±100 for the full control effect; potency is the fitted concentration of half-maximal effect.

Order of values: Vaccinia mCherry, Vaccinia Venus
CN(CCOc1ccc(Cl)cc1)C(=O)CN1C(=O)NC2(CCCCC2)C1=O
    u, u
CCOC(=O)c1cc(-c2ccc(OC)cc2OC)nn1-c1ccc(C(=O)O)cc1
    i, -13.7%
O=C1CCC(C(=O)NCc2ccc3c(c2)OCO3)N1 (stereo not given)
    -16.9%, -7.0%
Cc1ccc(S(=O)(=O)C2CCN(c3nc(-c4cccs4)nc4ccccc34)CC2)cc1
    -9.5%, -7.4%
CN(C)c1ccc(CNS(=O)(=O)c2ccc3[nH]c4c(c3c2)CCCCC4)cc1
    -14.8%, -8.4%
Cc1ccc(C(=O)CSc2nnc(-c3ccccc3N)n2C)cc1C
    -17.7%, -14.1%
CCC(C)NC(=O)Cn1c(=O)n(Cc2ccc(C(=O)NCc3ccccc3OC)cc2)c(=O)c2ccccc21 (stereo not given)
    -16.9%, -3.2%
CC(=O)CC(C)(C)n1nnc(-c2ccccc2)n1
    x, -17.8%
Cn1c2ccccc2c2nnc(SCCOc3ccccc3)nc21
    -8.9%, -9.0%
O=S(=O)(c1ccc(Cl)cc1Cl)N1CCCC1c1cccnc1 (stereo not given)
    -2.4%[7.34 µM], -9.3%[7.34 µM]
Cc1nn(C)c(Cl)c1CN1CCOc2ccc(CN3CCC(Oc4cccnc4)CC3)cc2C1
    -20.0%, -19.4%
CCOC(=O)c1c(C)[nH]c(C(=O)COC(=O)CNC(=O)c2ccccc2Cl)c1C
    -14.6%, -3.3%
O=C(CCSCCC(=O)NN=Cc1ccc(F)cc1)NN=Cc1ccc(F)cc1
    i, -0.2%
CCc1cccc(CC)c1NC(=O)COC(=O)c1ccc2c(c1)S(=O)(=O)c1ccccc1C2=O
    i, 0.6%
Cc1cc(C)c(NC(=O)CNC(=O)COC(=O)C2CCN(c3ccc(C(F)(F)F)cn3)CC2)c(C)c1
    -8.3%, -1.8%
Cc1ccsc1C(=O)N1CCCC(C)(C(=O)NS(=O)(=O)C2CC2)C1 (stereo not given)
    10.3%, 1.3%
Cc1ccc(C)c(NC(=O)c2sc(Cl)nc2C)c1
    u, -29.3%
COc1ccccc1-c1nc(SCC(=O)NCc2ccccc2)c2c(=O)n(C)c(=O)n(C)c2n1
    -2.7%, -6.0%
COCCn1c(=NC(=O)CSCC(=O)N2CCOCC2)sc2cc(C)ccc21
    i, -11.1%
CCCCNc1c(-c2ccc(SC(C)CC)cc2)nc2cnccn12 (stereo not given)
    31.6µM*, 22.4µM*
O=C(NCc1ccccc1F)c1ccncc1
    0.7%, -6.0%
COc1ccc(S(=O)(=O)N2CCCC2CNC(=O)C(=O)NCc2ccco2)cc1 (stereo not given)
    -5.4%, -6.6%
COc1ccccc1C(=O)NC(=O)COC(=O)Cn1cnc2c1c(=O)n(C)c(=O)n2C
    -20.4%, -22.8%
O=C(Nc1cc(F)ccc1F)C1CCN(S(=O)(=O)c2cccc3nonc23)CC1
    15.0%, -13.0%
CN(CCOc1ccccc1)Cc1ccccc1
    -1.0%, 1.8%
C#CCNC(=O)C1=C[C@@H](c2csc3ccccc23)C[C@@H](OCc2ccc(CO)cc2)O1
    u, -15.7%
Cc1nnc(SCc2nc3ccccc3c(=O)n2-c2ccccc2Cl)n1N
    i, -7.3%
Cn1c(=O)[nH]c(=O)c2c1nc(NCCCn1ccnc1)n2Cc1ccccc1
    x, -5.2%
COc1cccc(CN2CCN(CC(=O)Nc3ccccc3Cl)CC2)c1
    i, -1.3%
C=CCNC(=O)/C(C#N)=C/c1ccc(C(=O)O)cc1
    i, -8.1%
C/C(=N\NC(=O)C1CCCN(S(=O)(=O)c2ccccc2)C1)c1ccncc1 (stereo not given)
    -9.9%[1.46 µM], -20.5%
COC(=O)c1ccc(C)c(NC(=O)Cn2cnc3ccccc3c2=O)c1
    -5.7%, -1.6%
Cc1cc(Nc2ccccc2C)nc(-n2nc(C)cc2C)n1
    -6.3%[7.34 µM], -6.3%[7.34 µM]
CC1=CC2=NCC(O)CN2C=C1 (stereo not given)
    u, -6.0%
O=C(NC1CCCC1)C1C(c2ccc(C(F)(F)F)cc2)=Nc2ccccc2N1C(=O)c1cc2ccccc2[nH]1 (stereo not given)
    -8.5%, -22.2%
COc1ccc(C(=O)Nc2ccc(S(=O)(=O)N3CCc4ccccc43)cc2)cc1
    u, -27.4%
Cc1cccc(Nc2nc(N)nc(-c3oc4ccccc4c3C)n2)c1
    -22.6%, u
COc1ccc(C2C(C(=O)O)c3ccccc3C(=O)N2Cc2ccco2)cc1 (stereo not given)
    -0.7%[7.34 µM], -8.6%[7.34 µM]
COc1ccccc1N(CC(=O)NCC1CCCO1)C(=O)CCC(=O)Nc1nccs1 (stereo not given)
    i, -6.4%
Cc1cc(C)c(S(=O)(=O)Nc2ccc(-c3ccc(N4CCCCCC4)nn3)cc2)c(C)c1
    -14.8%, -23.0%

Reprinted from the part before: three entries, followed by the next part.
Order of values: Vaccinia mCherry, Vaccinia Venus
COc1ccc(C2C(C(=O)O)c3ccccc3C(=O)N2Cc2ccco2)cc1 (stereo not given)
    -0.7%[7.34 µM], -8.6%[7.34 µM]
COc1ccccc1N(CC(=O)NCC1CCCO1)C(=O)CCC(=O)Nc1nccs1 (stereo not given)
    i, -6.4%
Cc1cc(C)c(S(=O)(=O)Nc2ccc(-c3ccc(N4CCCCCC4)nn3)cc2)c(C)c1
    -14.8%, -23.0%
COc1cc(-c2nc(S(=O)(=O)c3ccc(Br)cc3)c(N3CCOCC3)o2)cc(OC)c1OC
    -28.7%, -17.3%
N=C1c2ccccc2CN1c1ccc(F)c([N+](=O)[O-])c1
    u, -1.7%
O=C(c1cc2cc(C(F)(F)F)ccc2s1)N1CCOCC1
    i, -5.7%
Cn1c(=O)c2c(nc(NCC3CCCO3)n2Cc2ccccc2)n(C)c1=O (stereo not given)
    x, 3.2%
O=C(CN1C(=O)NC2NC(=O)NC21)NC1CCCCC1 (stereo not given)
    -15.2%, 3.0%
CC(C)c1ccc(NC(=O)C2=NNC(=O)CC2)cc1
    -16.7%, -17.3%
CCCSCCCNC(=O)c1cc2c(s1)CS(=O)(=O)C2
    -4.3%, -10.6%
CCOC(=O)COc1ccc(C2NC(C(=O)O)CS2)cc1 (stereo not given)
    x, -7.1%
O=C(Oc1cc(-c2ccccc2)no1)c1ccc(F)cc1
    x, 6.2%
COc1cc(N)cc(NC(=O)c2ccncc2)c1
    x, 0.8%
CN1CCC(OC(=O)C23CCC(C)(C(=O)O2)C3(C)C)CC1 (stereo not given)
    i, -18.9%
COc1cccc(CNc2nc3ccccc3n2C(C)C)c1O
    -21.9%, -8.7%
CCCN(CCC)S(=O)(=O)c1nc2nc(C)cc(C)n2n1
    -21.8%, -19.2%
Nc1ccc(-c2nc3c(Cl)cc(N)cc3[nH]2)cc1
    -9.6%, -12.6%
O=C(NCCc1c[nH]c2ccccc12)C1CCCN(S(=O)(=O)c2ccccc2)C1 (stereo not given)
    u, -9.8%
COC1=CC(=O)OC(c2cccc(Cl)c2)C1 (stereo not given)
    -11.5%, -6.1%
Cc1ccccc1Cn1c(=O)n(CCC(=O)NCc2ccco2)c(=O)c2sccc21
    -8.5%, -4.6%
O=C(/C=C/c1ccc2c(c1)OCO2)Nc1cc(S(=O)(=O)N2CCOCC2)ccc1N1CCOCC1
    u, -25.7%
COc1ccc(CNC(=O)C(C)OC(=O)Cn2cnc3c2c(=O)n(C)c(=O)n3C)cc1 (stereo not given)
    -17.0%, -17.3%
O=C(Nc1nc(=O)c2ccccc2s1)c1ccc(F)cc1
    i, -9.0%
Cc1ccsc1CNCC(O)c1ccccc1 (stereo not given)
    i, -8.5%
Cc1cc(=O)[nH]c(-n2[nH]c(C)cc2=O)n1
    -19.7%, -18.8%
Cc1cc(=O)oc2cc(OC(C)C(=O)NCCc3ccc(S(N)(=O)=O)cc3)ccc12 (stereo not given)
    -3.6%[7.34 µM], -13.4%[7.34 µM]
COc1cc(NC(=S)NCc2ccco2)cc(OC)c1OC
    -16.8%, -14.9%
Cc1ccc(-n2nc(CO)c(C(=O)NCCc3ccccc3)n2)cc1
    -2.7%, -8.3%
CN(C)c1ccc(CNC(=O)CCCN2C(=O)c3cccnc3Oc3ccc(Cl)cc32)cc1
    -10.2%, -2.6%
Cc1ccc(SCCNC(=O)CN(c2ccc3c(c2)OCO3)S(C)(=O)=O)cc1
    x, u
CCCCNC(=O)C1C(c2ccc(C(F)(F)F)cc2)=Nc2ccccc2N1C(=O)C1CCN(C(C)=O)CC1 (stereo not given)
    u, -14.0%
CN(Cc1nc(Cc2cccc(C(F)(F)F)c2)no1)C1CC(C)(C)NC(C)(C)C1
    -18.1%, -18.1%
CCc1cccc(C)c1NC(=O)c1cnn(-c2ccc(OC)cc2)c1C1CCN(C(=O)OC(C)(C)C)CC1
    -22.9%, -20.0%
O=C(NCCN1CCOCC1)C1CCN(c2ncnc3c2sc2cccc(F)c23)CC1
    -22.9%, -23.6%
Cc1ccc(N2CC(C(=O)Nc3c(C)n(C)n(-c4ccccc4)c3=O)CC2=O)cc1 (stereo not given)
    -3.3%, -15.7%
C/C(=N\Nc1nncc2ccccc12)c1ccc(C(C)(C)C)cc1
    -6.0%, 2.3%
CC[C@]12c3[nH]c4ccc(Cl)cc4c3CCN1C(=O)[C@@H](CC(=O)NCCc1ccccn1)C[C@@H]2C(=O)N1CCN(C(=O)C2CC2)CC1
    0.3%, -14.5%
CCCCn1c(=O)[nH]c(=O)c2c1nc(-c1ccc(C)c([N+](=O)[O-])c1)n2CC
    i, -10.2%
NC(N)=NC(N)=Nc1ccc(SC(F)(F)F)cc1
    -21.7%, -19.4%
CCn1nc(C(=O)Nc2cccc(C(F)(F)F)c2)c(Cl)c1Cl
    -14.0%, -6.9%
NS(=O)(=O)c1cccc(NC(=O)CSc2nnc(-c3ccccc3)o2)c1
    -19.3%, -11.2%
CN(C)C1(CNC(=O)COc2ccc(C(C)(C)C)cc2)CCCCC1
    u, -22.4%
O=C(c1ccc([N+](=O)[O-])s1)N1CCc2ccccc21
    8.4%, 1.9%
CCN(C(=O)COC(=O)c1ccc(C)c(S(=O)(=O)N2CCOCC2)c1)C1CCS(=O)(=O)C1 (stereo not given)
    i, -14.3%
O=C(Nc1ccc(Cl)cc1)c1ccc2c(=O)n3c(nc2c1)CCCCC3
    -17.9%, -24.1%
Cc1nn(Cc2ccccc2)c(Cl)c1C(=O)Nc1ccc(OC(F)(F)F)cc1
    -18.6%, -28.6%
Cc1cccn2c(=O)c3cc(C(=O)NCCCn4ccnc4)n(C)c3nc12
    -16.0%, -8.6%
CC1(C)CC(=O)C(C(c2ccc(Br)cc2)C2C(=O)CC(C)(C)CC2=O)C(=O)C1
    i, -12.1%
Nc1c(-c2ccccc2)c(CSc2nc3ccccc3[nH]2)nn1-c1cccc(C(=O)O)c1
    i, -9.1%
CCC(C)c1ccc(NC(=O)N2CCN(C(=O)C3CCCO3)CC2)cc1 (stereo not given)
    -13.9%, -11.4%
O=C1c2sc3nc4n(c(=O)c3c2CCC1Br)CCCCC4 (stereo not given)
    -21.5%, -7.6%
Nc1nc(SCc2ccccn2)c2ncn(C3CCCC3)c2n1
    i, -11.6%
O=C(NCc1ccccc1)C1c2ccccc2OCC(=O)N1Cc1ccccc1 (stereo not given)
    14.2%, -9.4%
COc1cccc(-c2nc(CS(=O)(=O)c3ccccc3)no2)c1
    x, u
CC(Nc1cc(N2CCOCC2)ccc1[N+](=O)[O-])c1ccccc1 (stereo not given)
    -25.6%, -13.7%
COCCn1c(SCC(=O)OCc2ccccc2)nc2c1c(=O)[nH]c(=O)n2C
    -17.9%, -8.7%
NS(=O)(=O)c1ccc(NC(=O)CN2C(=O)C3C4C=CC(C4)C3C2=O)cc1 (stereo not given)
    -13.5%, -6.3%
CC1(c2nnc(-c3ccc(F)cc3)o2)CC(c2ccccc2)=NO1 (stereo not given)
    -6.8%, -15.7%
CC1(OC(=O)CCc2ccccc2)C(=O)C=C2C=C(c3ccc(C#N)cc3)N(C3CCCC3)C=C2C1=O (stereo not given)
    15.2%, -6.5%
CCOc1cc(C=O)ccc1OCC(=O)NC(C)(C)C
    i, 0.0%
O=C1NC(=O)C(c2cccs2)(c2cccs2)N1
    i, 0.0%
COc1cc(/C=N/NC(=O)c2nc(-c3ccccc3)n(-c3ccccc3)n2)ccc1O
    -1.1%, -6.6%
COc1ccc(CCC(=O)NCc2nc3cccnc3n2Cc2ccc(OC)cc2)cc1
    -15.5%, -7.5%

Continued, starting with the last 4 of the part before.
Order of values: Vaccinia mCherry, Vaccinia Venus
CCOc1cc(C=O)ccc1OCC(=O)NC(C)(C)C
    i, 0.0%
O=C1NC(=O)C(c2cccs2)(c2cccs2)N1
    i, 0.0%
COc1cc(/C=N/NC(=O)c2nc(-c3ccccc3)n(-c3ccccc3)n2)ccc1O
    -1.1%, -6.6%
COc1ccc(CCC(=O)NCc2nc3cccnc3n2Cc2ccc(OC)cc2)cc1
    -15.5%, -7.5%
c1ccc2oc(-c3ccc4nc[nH]c4c3)nc2c1
    x, -16.5%
COc1ccc(-c2nc3ccc(NC(C)=O)cc3c(=O)n2Cc2ccccc2)cc1COc1ccc(NC(C)=O)cc1
    i, -6.9%
O=C(NOC(=O)c1ccccc1F)c1ccc(OC(F)F)cc1
    i, -16.1%
O=S1(=O)N[C@@H](Cc2ccccc2)COc2cc(N3CCN(Cc4ccccc4F)CC3)ccc21
    2.2%, 0.4%
